Assay outcomes deposited in PubChem BioAssay by National Center for Advancing Translational Sciences (NCATS).
Rango complex inh: qHTS Assay for Inhibitors of Rango (Ran-regulated importin-beta cargo) - Importin beta complex formation; Importin subunit beta-1 (Homo sapiens), Q14974; Rango CFP/YFP FRET sensor + importin beta, 45 min; Potency, µM (doses to about 92.2 µM), without a hit: at the highest dose inhibition of complex formation; 340,000 compounds, 0.031% hits; active = rising FRET ratio curve, often small or poorly fitted; inconclusive = mostly compound fluorescence or quenching in the first reads; inactive = flat curves in all reads;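 also: potency is read from the fitted curve at half-maximal effect; 0% = DMSO wells and 100% = buffer wells lacking importin beta; nearly all actives have a fitted effect of over 15% in size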
Target sequence (Q14974 whole entry, looked up): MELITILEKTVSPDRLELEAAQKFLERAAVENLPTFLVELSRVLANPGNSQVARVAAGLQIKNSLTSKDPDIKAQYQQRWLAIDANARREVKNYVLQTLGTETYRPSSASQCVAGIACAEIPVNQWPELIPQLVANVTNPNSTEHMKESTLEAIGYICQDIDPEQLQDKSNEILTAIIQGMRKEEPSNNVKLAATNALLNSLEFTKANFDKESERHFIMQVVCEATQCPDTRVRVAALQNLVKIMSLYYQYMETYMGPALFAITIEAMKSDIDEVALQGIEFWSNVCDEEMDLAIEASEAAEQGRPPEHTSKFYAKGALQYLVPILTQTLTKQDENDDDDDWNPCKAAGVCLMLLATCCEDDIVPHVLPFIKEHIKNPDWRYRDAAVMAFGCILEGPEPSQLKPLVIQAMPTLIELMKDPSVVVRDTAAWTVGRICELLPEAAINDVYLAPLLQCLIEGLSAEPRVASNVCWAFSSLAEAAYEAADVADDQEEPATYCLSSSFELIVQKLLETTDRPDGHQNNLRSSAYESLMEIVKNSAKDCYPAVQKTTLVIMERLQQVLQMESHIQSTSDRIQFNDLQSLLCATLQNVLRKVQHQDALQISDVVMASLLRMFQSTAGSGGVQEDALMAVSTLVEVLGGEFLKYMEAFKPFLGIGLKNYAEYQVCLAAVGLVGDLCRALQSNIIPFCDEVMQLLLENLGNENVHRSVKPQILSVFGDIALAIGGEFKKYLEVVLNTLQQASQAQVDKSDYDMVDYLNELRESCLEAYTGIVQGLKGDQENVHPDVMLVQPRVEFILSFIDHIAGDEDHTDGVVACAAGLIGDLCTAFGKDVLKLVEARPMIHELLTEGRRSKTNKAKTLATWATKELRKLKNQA
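FRET biosensor Rango (snurportin 1 IBB between N-terminal EYFP and C-terminal Cerulean), 50 nM in PBS/1 mM DTT/0.02% Tween-20/0.1% BSA, preincubated 5 min RT with compound; 0.125 microM importin beta added, 45 min RT, CFP/YFP FRET ratio read.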
Rango dissoc inh: qHTS Assay for Inhibitors of RanGTP induced Rango (Ran-regulated importin-beta cargo) - Importin beta complex dissociation; 340,000 compounds, 0.071% hits; Biochemical FRET Rango-importin beta, RanGTP-induced dissociation; Snurportin-1 (Homo sapiens) + GTP-binding nuclear protein Ran (Homo sapiens) + Importin …; Potency, µM (series often up to 46.1 µM), without a hit: at the highest dose activity change, negative = inhibition; active means falling FRET ratio curve, often poorly fitted, with flat reads before Ran was added; inconclusive means other falling curves, or compound fluorescence or quenching; inactive means flat or rising ratio curve;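 also: potency is read from the fitted curve at half-maximal effect; % of control where 0% means no effect; nearly all actives have a fitted effect of over 45% in size; -100% = wells without RanGTP and RCC1; the record marks most hits as doubtful in a second field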
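Compounds preincubate 5 min with complex of recombinant Rango and importin beta in PBS with 1 mM DTT. Ran (0.6 uM) loaded with 2 mM GTP plus 0.2 uM RCC1 starts dissociation; FRET is recorded 45 min later.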
miR-21 FLuc: qHTS Assay for Modulators of miRNAs and/orActivators of miR-21; HeLa miR-21 FLuc reporter, luciferase, 48 h; Potency, µM (series often up to 38.3 µM), for inactives: at the top dose reporter change, positive = more light; 340,000 tested, under 10 active; AID 2288, 2010; active = well fitted rising curve with a large enough effect; inconclusive = small, poorly fitted or top-dose-only effect; inactive = no such curve, though single readings can be large or run the other way;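 also: % of control where 0% means no effect; miR-21 action dims this reporter so a rising signal means less miR-21 action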
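Using DMEM plus 10% FBS, HeLa miR-21-FLuc cells are incubated with test compounds (final up to about 40uM) for 48 hours; firefly luciferase signal is then imaged following reagent-mediated lysis.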
GLA inh pH 4.5: qHTS Assay for Inhibitors of Human alpha-Galactosidase at pH 4.5; Alpha-galactosidase A (Homo sapiens), P06280; 230,000 tested, under 10 active; purified enzyme, 4-MU-alpha-Gal fluorescence, pH 4.5; activity change, negative = inhibition, % at 105 µM; inconclusive = small, poorly fitted or top-dose-only inhibition, or a rising curve; inactive = flat fitted curve, though single readings scatter; no compound was filed as active;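 also: 0% = full activity with enzyme and -100% = basal without enzyme; dose as in the result columns while the protocol names 77 µM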
* marks the source's active call; other numbers are inactive results; ? = inconclusive; . = no result given; & = joins results of further samples. The list is partial; count on the stated rates, not on these rows.

nr	Molecule	Rango complex inh	miR-21 FLuc	GLA inh pH 4.5	Rango dissoc inh
1	O=C(NCc1ccccc1)C1CCC(CNS(=O)(=O)c2cccs2)CC1 (stereo not given)	1.7%	1%	.	-12%
2	Cc1cccc(N=Nc2c(C)nn(-c3ccccc3)c2N)c1C	4.3%	-62%	-2	10%
3	CCc1cccc(OCCOCCN2CCCC2)c1	-2.1%	-6%	7	0%
4	O=C(CCN1Cc2ccccc2C1)c1ccc2c(c1)OCCO2	-3.9%	6%	-7	-2%
5	Nc1sc2c(c1C(=O)NCCc1ccccc1)CCC2	?	-27%	-3	-22%
6	CC(NC(=O)Cc1ccc(F)cc1)c1ccccc1 (stereo not given)	0.0%	-5%	-12	2%
7	CN1OC[C@@H]2CN(Cc3ccccc3)[C@H](c3cccc(Oc4ccccc4)c3)C[C@@H]21	0.4%	.	.	-10%
8	O=C(Nc1ccccc1N1CCN(c2ccccc2)CC1)c1ccccc1	0.8%	9%	9	-2%
9	N#Cc1c(N)nc(SCC(=O)NCc2ccc3c(c2)OCO3)c(C#N)c1-c1cccs1	1.7%	-18%	4	9%
10	CCN1CC(=O)Nc2cc(S(=O)(=O)N3CCOCC3)ccc21	-3.3%	1%	-15	-3%
11	O=C(NC1CCCC1)c1ccc(Cl)c(S(=O)(=O)N2CCOCC2)c1	1.1%	-4%	.	-1%
12	Cc1ccc(C)c(N2CCN(C(=O)c3cn(C)c4ccc(S(=O)(=O)N(C)C)cc4c3=O)CC2)c1	0.2%	5%	2	-2%
13	Cc1cc(C)nc(/N=C2\NC(=O)CC(C(=O)O)N2c2ccc(C)c(C)c2)n1 (stereo not given)	0.7%	-2%	2	-4%
14	COc1ccc(-c2nnc(SCC(=O)NC3CCCc4ccccc43)n2N)cc1 (stereo not given)	1.3%	-9%	2	0%
15	Cc1cc2ncn(/N=C/c3cc(Br)ccc3O)c2cc1C	.	-1%	-15	.
16	COc1cc(NC(=O)CSc2ccc(-c3ccccn3)nn2)cc(OC)c1	-1.3%	2%&12%	.	-3%
17	COc1ccc(CNc2nc3ccccc3n2C(C)C)cc1	-1.1%	-14%	.	-4%
18	O=C(CNCc1ccncc1)Nc1cc(S(=O)(=O)N2CCCCC2)ccc1Cl	?	-2%	-9	?
19	CCOC(=O)c1c(NC(C)=O)sc2c(OCC(O)CNC(C)(C)C)c(Br)ccc12 (stereo not given)	1.7%	5%	2	-1%
20	Cn1cc(S(=O)(=O)NCC2CCCO2)c(=O)n(C)c1=O (stereo not given)	2.4%	-2%	-1	-3%

(further entries)
nr	Molecule	Rango complex inh	miR-21 FLuc	GLA inh pH 4.5	Rango dissoc inh
21	COc1cccc(N(C(=O)c2ccn[nH]2)C2(C(=O)Nc3c(C)cccc3C)CCCCC2)c1	2.3%	-1%	-11	-3%
22	COc1ccc(CNC(=O)CCSCc2cccc(Cl)c2)cc1	0.2%	-1%	-6	-6%
23	O=C(NCc1nc2ccccc2[nH]1)c1ccc(S(=O)(=O)N2CCCC2)cc1	-1.2%	-4%	2	-11%
24	CCC1CCCCN1C/C=C/c1ccccc1[N+](=O)[O-] (stereo not given)	0.1%	-8%	-14	28%
25	Cc1cc(-c2ccc([N+](=O)[O-])cc2)cc(C)n1	4.5%	.	.	36%
26	CCCCNc1nc(NC)nc(Cl)c1SC	-0.3%	-11%	2	-11%
27	CCCCn1c(N)c(N(Cc2ccccc2OC)C(=O)COc2ccccc2OC)c(=O)[nH]c1=O	0.0%	.	.	15%
28	CSCCC(NS(=O)(=O)c1ccc(C)cc1)C(=O)N1CC=C(c2ccccc2)CC1 (stereo not given)	0.6%	.	.	20%
29	O=[N+]([O-])c1ccc(/C=C/c2ccc3ccccc3n2)cc1	?	-22%	5	4%
30	O=C(CCCN1C(=O)/C(=C/c2cccs2)SC1=S)Nc1cccc(O)c1	4.8%	11%	.	-12%
31	O=C(NCCc1ccccc1)C1CCC(Cn2c(=O)c3ccccc3n(Cc3cccc(F)c3)c2=O)CC1 (stereo not given)	2.3%	-7%	0	-13%
32	O=C(Nc1ccc(Cc2ccncc2)cc1)c1ccc(Cl)c([N+](=O)[O-])c1	-1.2%	20%	1	-4%
33	Cc1ccc(NC(=O)c2cc(S(=O)(=O)N3CCOCC3)cs2)cc1	4.3%	10%	.	-11%
34	CC(=O)Nc1ccc(/C=C2/Sc3ccccc3C2=O)cc1	?	-4%	0	?
35	COc1ccc(C2(O)CC3CCC(C2)N3c2nc(C)cc(C)c2C#N)cc1 (stereo not given)	-0.4%	17%	-7	-4%
36	CCNS(=O)(=O)c1ccc(C)c(-n2cnnn2)c1C	0.1%	1%	2	-5%
37	O=C(Nc1ccccc1)N1N=C(c2ccc(F)cc2)CC1c1ccc(F)cc1 (stereo not given)	4.2%	-3%	-4	-5%
38	COCCn1c(C)cc(C(=O)CSc2nnnn2C2CCCC2)c1C	0.4%	.	.	-4%
39	CCCn1c(SCC(=O)c2ccc3c(c2)NC(=O)CO3)nc2ccccc21	1.1%	0%	-13	-9%
40	CS(=O)(=O)c1ccc(Cl)c(C(=O)NC2CCSc3ccccc32)c1 (stereo not given)	1.8%	-2%	.	11%

Next section.
nr	Molecule	Rango complex inh	miR-21 FLuc	GLA inh pH 4.5	Rango dissoc inh
41	Oc1c(Cl)cc(Cl)cc1C1=NNC(c2ccc(Cl)cc2)C1 (stereo not given)	?	-4%	-21	?
42	COc1ccc(-c2[nH]ncc2CN2CCN(Cc3cccs3)CC2)c(F)c1	1.4%	-5%	-8	17%
43	Cc1[nH]nc2c1C(C(C)C)C(C#N)=C(N)O2 (stereo not given)	0.9%	-2%	8	2%
44	COc1ccc2c(C(=O)CCl)c[nH]c2c1	-0.3%	20%	0	-16%
45	CC1=C(C(=O)N(C)C)C(c2cccs2)NC(=O)N1 (stereo not given)	2.4%	-8%	1	-2%
46	COc1cc2ccccc2cc1C(=O)Nc1ccccc1N1CCCC1	2.9%	.	.	11%
47	CCOc1ccc(CNS(=O)(=O)c2c(C)nc3scc(C)n3c2=O)cc1OC	0.0%	0%	.	9%
48	CCN(CC)CCN1C(=O)C(O)=C(C(C)=O)C1c1ccccc1 (stereo not given)	.	0%	2	.
49	CC(C)(C)NC(=O)c1cccnc1Sc1ccccc1	?	-3%	-4	-22%
50	CC(N=C1NC(C)(C)Cc2ccccc21)C(=O)O (stereo not given)	0.6%	2%	4	-7%
51	COc1ccc(-c2cc(C(F)(F)F)nc(NCc3cccnc3)n2)cc1	1.8%	5%	?	-3%
52	COc1ccccc1N1CCN(/N=C/C=C\c2ccccc2[N+](=O)[O-])CC1	1.6%	-8%	10	0%
53	CCOC(=O)CC[C@H](NC(=O)Cn1cnc2c(SC)nc(N)nc21)C(=O)OCC	-0.8%	.	.	7%
54	Cc1nc(Nc2ccc(Br)cc2Br)c([N+](=O)[O-])c(=O)[nH]1	3.0%	.	.	-19%
55	Cc1ccc(S(=O)(=O)N(CC(=O)Nc2cccnc2)c2ccccc2C)cc1	0.2%	7%	.	-7%
56	CCCCNCc1ccc(OCc2ccc(Cl)nc2)c(OC)c1	0.5%	0%	-3	30%
57	COCCNC(=S)Nc1ccc2nc(N3CCCC3)cc(C)c2c1	-3.5%	-4%	-6	-3%
58	CCOC(=O)CCCn1ncn2c(cc3occc32)c1=O	-0.3%	-55%	-12	20%
59	Cc1ccc(-c2cc(C(F)(F)F)n3ncc(C(=O)N4CCN(C)CC4)c3n2)cc1	0.2%	-6%	0	2%
60	CCCCCCCCCC(=O)N1c2ccccc2NC(=O)C1CC(=O)Nc1ccc(C(=O)O)cc1 (stereo not given)	1.0%	1%	-5	6%

Next part.
nr	Molecule	Rango complex inh	miR-21 FLuc	GLA inh pH 4.5	Rango dissoc inh
61	O=C1NC(c2ccco2)Nc2ccccc21 (stereo not given)	1.1%	-3%	12	-6%
62	O=C(Nc1ccccc1C(=O)N1CCOCC1)c1ccc(Cl)cc1	2.9%	-2%	1	-2%
63	CCOC(=O)c1c(NC(=O)CSc2nc(C)cc(C)c2C#N)sc(C(C)=O)c1C	-3.1%	1%	6	-4%
64	Cc1noc(NS(=O)(=O)c2ccc(N/C=C/C(=O)c3cccnc3)cc2)c1C	0.7%	-20%	1	-25%
65	COc1ccccc1-c1csc(NC(=O)c2ccc(N3C(=O)CCC3=O)cc2)n1	-4.8%	10%	0	5%
66	CC1NC(=O)N(C)[C@@H]2NC(=O)N(C)C(c3ccc([N+](=O)[O-])cc3)[C@@H]12 (stereo not given in full)	2.0%	4%	4	-15%
67	COCCN(CC(=O)Nc1cccc(C)c1C)C(=O)Cn1cnc2ccccc2c1=O	2.0%	.	.	-5%
68	CC(C)CN(C(=O)COC(=O)c1ccc2c(c1)OCCO2)c1c(N)n(Cc2ccccc2)c(=O)[nH]c1=O	-0.3%	.	.	32%
69	CCOC(=O)c1c(C)nc2c(c1-c1ccc(Cl)cc1)C(=O)CC(C)(C)C2	-2.6%	17%	-3	10%
70	S=C(NCCc1ccccc1)N1CCc2ccccc2C1	1.4%	-54%	3	-6%
71	COc1ccc2oc(C(=O)OCC(=O)NCCc3ccc(S(N)(=O)=O)cc3)c(C)c2c1	?	.	.	15%
72	O=C(Cn1nnc(-c2ccc3c(c2)OCO3)n1)NCc1ccco1	-2.7%	-30%	-11	-6%
73	O=C(N/N=C/c1ccc(Cl)c([N+](=O)[O-])c1)c1cnccn1	-1.5%	-7%	-3	0%
74	C/C(CC(=O)Nc1ccc(F)cc1)=N\NC(=O)c1ccccn1	-2.6%	-44%	-1	5%
75	C/C=C/c1ccc(OCCOCCOc2cccc3cccnc23)c(OC)c1	-0.9%	3%	-4	1%
76	COc1ccc(CNC(=O)CN(C)S(=O)(=O)c2ccc3c(c2)n(C)c(=O)c(=O)n3C)cc1	0.1%	-2%	.	5%
77	Cc1ccc(NC(=O)[C@@H]2CCCN2C(=O)c2cccs2)cc1S(=O)(=O)N1CCCCC1	-4.9%	.	.	0%
78	COc1ccc(-n2c(COc3cccc(C)c3)n[nH]c2=S)cc1	-4.8%	-5%	.	-12%
79	Cc1cccc(CN2C(=O)NC(c3ccccc3)(c3ccccc3)C2=O)c1	0.7%	14%	.	6%
80	Cc1nnc(SCC(=O)NCc2ccco2)n1Cc1ccccc1	1.0%	-1%	7	1%

Remaining list, next part
nr	Molecule	Rango complex inh	miR-21 FLuc	GLA inh pH 4.5	Rango dissoc inh
81	Cc1ccc(C(=O)CCC(=O)N2CCN(c3ccc(F)cc3)CC2)cc1	-0.7%	0%	.	-4%
82	O=C(CCc1ccccc1)NCc1ccncc1	0.0%	-5%	.	0%
83	CSc1ccc(CN(C)C(C)C(=O)NCc2ccccc2)cc1 (stereo not given)	-3.4%	-5%	6	-11%
84	COc1ccc(-c2n[nH]c(=S)n2-c2ccccc2C)cc1	-0.9%	4%	.	-13%
85	CC(C)COC(=O)c1ccccc1OC(=O)c1ccncc1	-2.2%	-7%	3	12%
86	Cc1nc(NC(=O)C2CC2)sc1C	-0.9%	-1%	2	-14%

A different layout for part of the listing above.
Every second line gives: Rango complex inh | miR-21 FLuc | GLA inh pH 4.5 | Rango dissoc inh
84	COc1ccc(-c2n[nH]c(=S)n2-c2ccccc2C)cc1
  -0.9% | 4% | . | -13%
82	O=C(CCc1ccccc1)NCc1ccncc1
  0.0% | -5% | . | 0%
83	CSc1ccc(CN(C)C(C)C(=O)NCc2ccccc2)cc1 (stereo not given)
  -3.4% | -5% | 6 | -11%
85	CC(C)COC(=O)c1ccccc1OC(=O)c1ccncc1
  -2.2% | -7% | 3 | 12%
